# Rango release inh – qHTS Assay for Inhibitors of RanGTP induced Rango (Ran-regulated importin-beta cargo) - Importin beta complex dissociation | Biochemical FRET Rango-importin beta, RanGTP-induced dissociation | Potency, µM (titrated, usually from 46.1 µM), for inactives: at the top dose activity change, negative = inhibition | hit rate 0.071% among 340,000 | Snurportin-1 (Homo sapiens) + GTP-binding nuclear protein Ran (Homo sapiens) + Importin …; active means falling FRET ratio curve, often poorly fitted, with flat reads before Ran was added; inconclusive means other falling curves, or compound fluorescence or quenching; inactive means flat or rising ratio curve;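 also: potency is read from the fitted curve at half-maximal effect; % of control where 0% means no effect; nearly all actives have a fitted effect of over 45% in size; -100% = wells without RanGTP and RCC1; the record marks most hits as doubtful in a second field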
#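 Two FRET readings bracket the reaction: one 5 min after compound meets Rango–importin beta, another 45 min after RanGTP-RCC1 (0.6 uM Ran, 0.2 uM RCC1, 2 mM GTP) is added. Only the second defines inhibition.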
# miR-21 FLuc – qHTS Assay for Modulators of miRNAs and/orActivators of miR-21. Potency, µM (top dose mostly 38.3 µM), for inactives: at the top dose reporter change, positive = more light. HeLa miR-21 FLuc reporter, luciferase, 48 h. 340,000 tested, under 10 active; active = well fitted rising curve with a large enough effect; inconclusive = small, poorly fitted or top-dose-only effect; inactive = no such curve, though single readings can be large or run the other way;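 also: % of control where 0% means no effect; miR-21 action dims this reporter so a rising signal means less miR-21 action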
#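 HeLa cells endogenously expressing miR-21, stably carrying CMV-driven firefly luciferase with a downstream miR-21 binding site, 2000 cells/well. Titrations up to approximately 40 uM, 48 hours; luciferase luminescence read.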
# GLA inh pH 4.5 – qHTS Assay for Inhibitors of Human alpha-Galactosidase at pH 4.5. purified enzyme, 4-MU-alpha-Gal fluorescence, pH 4.5. AID 1467, 2008. Alpha-galactosidase A (Homo sapiens), P06280. activity change, negative = inhibition, % at 105 µM. 230,000 tested, under 10 active; inconclusive = small, poorly fitted or top-dose-only inhibition, or a rising curve; inactive = flat fitted curve, though single readings scatter; no compound was filed as active;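 also: 0% = full activity with enzyme and -100% = basal without enzyme; dose as in the result columns while the protocol names 77 µM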
# Target sequence (P06280 whole entry, looked up): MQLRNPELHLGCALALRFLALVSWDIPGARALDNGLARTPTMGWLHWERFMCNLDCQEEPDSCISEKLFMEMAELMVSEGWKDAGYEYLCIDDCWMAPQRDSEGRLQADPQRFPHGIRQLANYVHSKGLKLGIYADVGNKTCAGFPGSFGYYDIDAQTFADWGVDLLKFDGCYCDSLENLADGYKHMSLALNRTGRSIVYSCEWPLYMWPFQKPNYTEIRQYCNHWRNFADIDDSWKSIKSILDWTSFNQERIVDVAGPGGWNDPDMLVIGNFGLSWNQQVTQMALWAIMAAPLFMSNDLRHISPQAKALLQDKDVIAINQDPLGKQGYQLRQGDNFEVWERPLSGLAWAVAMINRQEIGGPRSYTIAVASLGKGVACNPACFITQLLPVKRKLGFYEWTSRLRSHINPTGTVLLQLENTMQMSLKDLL
# Rango-impB inh – qHTS Assay for Inhibitors of Rango (Ran-regulated importin-beta cargo) - Importin beta complex formation; Potency, µM (series often up to 92.2 µM), for the others: at the top dose inhibition of complex formation; Importin subunit beta-1 (Homo sapiens), Q14974; AID 540263, 2011; Rango CFP/YFP FRET sensor + importin beta, 45 min; hit rate 0.031% among 340,000; active = rising FRET ratio curve, often small or poorly fitted; inconclusive = mostly compound fluorescence or quenching in the first reads; inactive = flat curves in all reads;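 also: potency is read from the fitted curve at half-maximal effect; 0% = DMSO wells and 100% = buffer wells lacking importin beta; nearly all actives have a fitted effect of over 15% in size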
#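 Inhibition scored from the CFP 486 nm/YFP 530 nm FRET ratio 45 min after adding 0.125 microM importin beta to 50 nM Rango biosensor preincubated 5 min with compound (room temperature, PBS with DTT, Tween-20, BSA). No-importin wells as positive control.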
# * hit, by the source's call; ? = inconclusive; . = no result given; & = joins results of further samples. This is a subset; the hit share may differ from the screen's.
Rango release inh,miR-21 FLuc,GLA inh pH 4.5,Rango-impB inh,Compound
0%,-40%,1,3.9%,CCOC(=O)Cn1cnc(-c2ccc([N+](=O)[O-])cc2)c1
22%,-16%,.,4.4%,Cn1cnc(S(=O)(=O)Nc2ccc(Cl)c(C(F)(F)F)c2)c1
-6%,-6%,-2,0.1%,O=C1c2ccccc2C(Nc2ccc(S(=O)(=O)N3CCOCC3)cc2)N1c1ccccn1 (stereo unspecified)
9%,-2%,1,0.7%,COc1cc(CNC2CCCC2)cc(OC)c1OC
2%,0%,5,0.2%,Cc1cc(N2C(=O)C3CCC(c4ccccc4)CC3C2=O)no1 (stereo unspecified)
-5%,8%,-1,-0.4%,Cc1c(Cl)cccc1NC(=S)N1CCN(Cc2ccccc2)CC1
9%,-2%,-10,-1.8%,CCOC(=O)NC(C)N1C(=O)C2C3C=CC(C3)C2C1=O (stereo unspecified)
7%,-15%,-7,0.1%,CCOc1ccc2nc(S(N)(=O)=O)sc2c1
-5%,.,.,?,Nc1ccc2ccccc2c1N=Nc1ccccc1
22%,-7%,7,-1.6%,CC(=O)N(C)c1ccc(NS(=O)(=O)Cc2ccccc2)cc1
9%,-5%,-4,0.4%,CN(C(=O)Nc1cnccc1C(F)(F)F)C1CCCCC1
4%,1%,6,-5.5%,O=C(Nc1ccon1)c1cc2ccccc2oc1=O
0%,-9%,.,0.6%,CCCc1cc(=O)oc2cc(C)cc(OC(C)C(=O)NCc3ccccn3)c12 (stereo unspecified)
?,-22%,1,?,Cc1c(O)c2c3c(cccc3c1O)C(=O)N(c1ccccc1)C2=O
6%,-11%,.,3.5%,Cc1ccnc(NC(=O)c2ccc(Cl)c(NC(=O)c3ccccc3C)c2)c1
?,?,.,?,OCCCNc1c2ccccc2nc2ccccc12
-6%,-1%,-18,0.1%,CCOC(=O)c1cnc2ccc(OCC)cc2c1NCCN1CCOCC1
-10%,0%,-8,0.7%,CCc1nnc(NC(=O)CSc2nnc(Cc3cccn3C)n2C)s1
-2%,2%,-1,-3.4%,O=C1N=NC2=C1c1c3ccccc3c(O)n1CC2
-5%,-1%,7,-3.2%,Cc1nc(-c2ccccc2O)n(-c2ccccc2)n1
-8%,-3%,0,2.5%,CCc1ccccc1NC(=S)N(CCN(C)C)C(C)c1ccccn1 (stereo unspecified)
-8%,8%,.,-0.6%,C=CCn1c(C23CC4CC(CC(C4)C2)C3)n[nH]c1=S
-1%,-1%,7,-0.1%,CCn1c(CSc2nnc(-c3ccncc3)n2C)nc2cc(C(=O)O)ccc21
-7%,15%,-3,-1.0%,N#CC(Sc1ccccn1)c1ccc(Cl)cc1Cl (stereo unspecified)
-5%,-8%,-2,-4.1%,COc1ccccc1/C=C/C(=O)Nc1ccc2c(c1)OCCO2
-15%,-61%,.,-0.8%,CCN(CC)S(=O)(=O)c1ccc(-c2cn3ccc(C)cc3n2)cc1
28%,7%,.,0.1%,COc1cc2c(cc1OC)C(c1ccccc1C(F)(F)F)CC(=O)N2 (stereo unspecified)
1%,-1%,-6,3.4%,CC1(NC(=O)N2CCOCC2)CCS(=O)(=O)C1 (stereo unspecified)
-7%,-3%,-3,-0.1%,COC(C[C@H](O)C[C@@H](O)[C@H](C)OCc1ccccc1)OC
6%,.,.,-4.0%,Cc1ccc(C(=O)N[C@H](C(=O)NC2CCCCCCC2)C(C)C)cc1
-4%,-2%,0,6.4%,CCN(CC)S(=O)(=O)c1cccc(C(=O)NCC2CCCO2)c1 (stereo unspecified)
-16%,-1%,5,?,Cc1ccccc1N1C(=O)CSC1=C(C#N)C#N
0%,-10%,.,-2.2%,O=C(NC1CCSc2ccccc21)c1cccc([N+](=O)[O-])c1 (stereo unspecified)
15%,2%,1,3.5%,NC(=O)Cn1nc([N+](=O)[O-])nc1Oc1ccccc1C(=O)N1CCOCC1
21%,-1%,-2,-0.8%,COc1ccc(Cl)cc1S(=O)(=O)NCc1cccs1
1%,-33%,5,-0.5%,COCCNC(=O)NC1(C(F)(F)F)Oc2ccc(Cl)cc2O1 (stereo unspecified)
1%,-8%,-12,0.8%,CCOC(=O)c1ccccc1Oc1c(F)c(F)nc(NCCO)c1F
-4%,.,.,0.1%,Cc1cc(C)cc(NC(=O)COC(=O)CCC2CCCC2)c1
2%,0%,.,1.9%,COc1ccc(S(=O)(=O)NC2CCCCC2)cc1C(=O)N1CCCCC1
7%,-2%,3,-0.2%,CCOC(=O)c1sc(NC(=O)c2cccnc2)c(C#N)c1C
-21%,1%,4,-1.2%,CCOC(=O)c1c(P(=O)(N2CCOCC2)N2CCOCC2)noc1N
7%,-2%,.,0.2%,COc1ccc(S(=O)(=O)Nc2cccc(-n3cnnn3)c2)cc1OC
-1%,-5%,-26,0.4%,CCOc1ccc(C(=O)Nc2c3c(nn2-c2cccc(Cl)c2)CS(=O)C3)cc1 (stereo unspecified)
2%,-1%,3,-3.1%,O=C(c1ccccc1F)N1CCN(S(=O)(=O)c2ccc(S(=O)(=O)N3CCCCC3)cc2)CC1
1%,-7%,-1,-0.2%,C=CCNC(=S)Nc1sc2c(c1C(=O)OCC)CC(C(C)C)OC2 (stereo unspecified)
-15%,6%,0&-17,?,COC(=O)CCC(=O)OC1(C)C(=O)C=C2C=C(C3CC3)N(C3CC3)C=C2C1=O (stereo unspecified)
?,1%,-1,?,CSc1nsc(/C=C/Nc2ccc(Cl)cc2)c1C#N
0%,-4%,3,-0.8%,O=C(NCCN1CCOCC1)C1CCC(CNS(=O)(=O)c2ccc(Cl)cc2)CC1 (stereo unspecified)
0%,-1%,5,-3.4%,O=C1CC(C(=O)Nc2ncccn2)C(c2ccccc2)O1 (stereo unspecified)
-10%,-2%,-4,0.4%,CCOC(=O)Cc1csc(NC(=O)COc2ccccc2OC)n1
10%,-47%,.,0.3%,O=C1c2ccccc2C(=O)N1CCOc1ccc(F)cc1
-10%,-16%,-2,-2.8%,Cc1ccc(-c2noc(C3CCCN(S(=O)(=O)c4ccc5ccccc5c4)C3)n2)o1 (stereo unspecified)
-5%,-25%,3,-3.0%,O=c1[nH]c(=O)n(Cc2ccco2)c2c1C(C(F)(F)F)(C(F)(F)F)N=C(c1ccco1)N2
1%,7%,-4,-2.9%,COc1ccc2cc(C(=O)C3CCCN(Cc4cnc(C)s4)C3)ccc2c1 (stereo unspecified)
-4%,-8%,.,?,c1ccc(CNc2nc(-c3ccccc3)nc3ccccc23)cc1
-13%,-22%,.,0.0%,Cc1cc(=O)oc2cc(NC(=S)NNC(=O)c3c(Cl)cnn3C)ccc12
11%,1%,.,0.0%,COc1ccc([N+](=O)[O-])cc1NC(=O)C1C2C=CC(C2)C1C(=O)O (stereo unspecified)
-12%,-6%,.,0.0%,COCC(=O)Nc1cc(C)cn(Cc2c(F)cccc2Cl)c1=O
?,.,.,?,CN(CC(=O)Nc1ccccc1Cl)C(=O)CCc1nc2ccccc2c(=O)[nH]1
20%,0%,-2,1.9%,CN(C)/C=C(\C#N)C(=O)c1cccc(Oc2ccc(Br)cc2)c1

# Going on with the list.
Rango release inh,miR-21 FLuc,GLA inh pH 4.5,Rango-impB inh,Compound
-15%,-2%,.,-1.3%,Cc1c(CC(=O)NCC(=O)NCC(=O)O)c(=O)oc2c(C)c3oc4c(c3cc12)CCCC4
30%,-11%,0,5.0%,CCOc1ccc(CCNS(=O)(=O)c2cnc[nH]2)cc1OCC
13%,0%,-4,1.5%,Cn1cc(/C=C2\SC(=S)N(N3CCOCC3)C2=O)c2ccccc21
10%,-6%,.,-0.3%,COc1ccc(-c2cc(=O)oc3c(C)c(OC(C)C(=O)NCc4ccccn4)ccc23)cc1 (stereo unspecified)
1%,0%,3,-0.3%,CN(C)S(=O)(=O)c1cccc(C(=O)NCCc2ccccc2)c1
4%,-15%,0,-2.7%,CCOC(=O)c1c(NC(=O)CSc2nnc(-c3cccnc3)o2)sc(C)c1C
4%,.,.,0.5%,CCOCc1c(C(=O)NCc2ccccc2CN2CCCC2)oc2ccccc12
4%,.,.,0.1%,Cc1ccc(SCC(=O)NC(=O)NC2CCCC2)c(C)c1
0%,-17%,-11,-1.0%,CCN(CC)c1cc(C)c2cc(NC(=O)c3cccs3)ccc2n1
10%,-2%,0,3.8%,Cc1nc(-c2noc(-c3ccc(Cl)cc3)n2)c(C(F)(F)F)o1
10%,1%,.,0.3%,O=S(=O)(Nc1cccnc1Cl)c1ccc(-c2ccccc2)cc1
6%,3%,-2,0.1%,Cc1cc(-c2c(C)[nH]n(-c3ccc(Cl)cc3)c2=O)n[nH]1
-13%,5%,.,-0.7%,CN(Cc1ccccc1)C(=O)C(=O)c1cn(CC(=O)N2CCCC2)c2ccccc12
1%,-28%,-1,0.5%,O=C(NC(=S)Nc1ccc(F)c([N+](=O)[O-])c1)c1ccccc1F
2%,.,-7,-4.7%,CCN(c1nc(N)c(C(=O)N=C(N)N)nc1Cl)C(C)C

# Taken from the entries so far (23 entries):
Rango release inh,miR-21 FLuc,GLA inh pH 4.5,Rango-impB inh,Compound
-5%,-25%,3,-3.0%,O=c1[nH]c(=O)n(Cc2ccco2)c2c1C(C(F)(F)F)(C(F)(F)F)N=C(c1ccco1)N2
1%,7%,-4,-2.9%,COc1ccc2cc(C(=O)C3CCCN(Cc4cnc(C)s4)C3)ccc2c1 (stereo unspecified)
-4%,-8%,.,?,c1ccc(CNc2nc(-c3ccccc3)nc3ccccc23)cc1
-13%,-22%,.,0.0%,Cc1cc(=O)oc2cc(NC(=S)NNC(=O)c3c(Cl)cnn3C)ccc12
11%,1%,.,0.0%,COc1ccc([N+](=O)[O-])cc1NC(=O)C1C2C=CC(C2)C1C(=O)O (stereo unspecified)
-12%,-6%,.,0.0%,COCC(=O)Nc1cc(C)cn(Cc2c(F)cccc2Cl)c1=O
?,.,.,?,CN(CC(=O)Nc1ccccc1Cl)C(=O)CCc1nc2ccccc2c(=O)[nH]1
20%,0%,-2,1.9%,CN(C)/C=C(\C#N)C(=O)c1cccc(Oc2ccc(Br)cc2)c1
-15%,-2%,.,-1.3%,Cc1c(CC(=O)NCC(=O)NCC(=O)O)c(=O)oc2c(C)c3oc4c(c3cc12)CCCC4
30%,-11%,0,5.0%,CCOc1ccc(CCNS(=O)(=O)c2cnc[nH]2)cc1OCC
13%,0%,-4,1.5%,Cn1cc(/C=C2\SC(=S)N(N3CCOCC3)C2=O)c2ccccc21
10%,-6%,.,-0.3%,COc1ccc(-c2cc(=O)oc3c(C)c(OC(C)C(=O)NCc4ccccn4)ccc23)cc1 (stereo unspecified)
1%,0%,3,-0.3%,CN(C)S(=O)(=O)c1cccc(C(=O)NCCc2ccccc2)c1
4%,-15%,0,-2.7%,CCOC(=O)c1c(NC(=O)CSc2nnc(-c3cccnc3)o2)sc(C)c1C
4%,.,.,0.5%,CCOCc1c(C(=O)NCc2ccccc2CN2CCCC2)oc2ccccc12
4%,.,.,0.1%,Cc1ccc(SCC(=O)NC(=O)NC2CCCC2)c(C)c1
0%,-17%,-11,-1.0%,CCN(CC)c1cc(C)c2cc(NC(=O)c3cccs3)ccc2n1
10%,-2%,0,3.8%,Cc1nc(-c2noc(-c3ccc(Cl)cc3)n2)c(C(F)(F)F)o1
10%,1%,.,0.3%,O=S(=O)(Nc1cccnc1Cl)c1ccc(-c2ccccc2)cc1
6%,3%,-2,0.1%,Cc1cc(-c2c(C)[nH]n(-c3ccc(Cl)cc3)c2=O)n[nH]1
-13%,5%,.,-0.7%,CN(Cc1ccccc1)C(=O)C(=O)c1cn(CC(=O)N2CCCC2)c2ccccc12
1%,-28%,-1,0.5%,O=C(NC(=S)Nc1ccc(F)c([N+](=O)[O-])c1)c1ccccc1F
2%,.,-7,-4.7%,CCN(c1nc(N)c(C(=O)N=C(N)N)nc1Cl)C(C)C

# Bioassay records: PubChem, National Center for Advancing Translational Sciences (NCATS)
